# Calb FLC = C. albicans growth inhibition with fluconazole, primary screen, CaCi-2 strain, Alamar Blue fluorescence; C. albicans CaCi-2 (fluconazole-resistant clinical isolate) + fluconazole, 48 h; growth inhibition, % (no concentration beside the values); actives 0.57% (n = 300,000); AID 1979, 2009;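 active = most replicates above 75%; inconclusive = exactly half above 75%; inactive = most below 75%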;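 also: all wells also contain fluconazole at 8 µg/ml as a sub-toxic cotreatment; 0% = median of DMSO wells and 100% = median of geldanamycin control wells; wells of about 8 µL received 7.5 nL stock; the first replicate is given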
# Vif TR-FRET = inhibitors of Vif binding to APOBEC3G peptide, primary screen, biochemical, TR-FRET, GST-Vif 1-94, biotin-A3G peptide, dose response retest (AID 1117319). inhibition, %, or IC50 in µM where a hit was titrated. TR-FRET GST-Vif / biotin-A3G peptide binding; higher % means a stronger effect; test concentration not given here; strong numbers were not always called active. actives 0.57% (n = 260,000). Virion infectivity factor (Human immunodeficiency virus type 1 group M subtype B (isolate …;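 active = above the screen mean plus three standard deviations and confirmed in dose response; inconclusive = results disagree or hit not tested in dose response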;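 also: Vif residues 1-94 fused to GST binding biotinylated APOBEC3G peptide 110-148; 0% = full assay without inhibitor and 100% = GST in place of GST-Vif; retest series ran down from 100 µM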
# MLL AF4-AF9 inh = inhibitors of AF4 peptide binding to AF9, primary screen, biochemical, AlphaScreen, biotin-AF4 peptide, FLAG-AF9, single point; actives 0.47% (n = 350,000); inhibition, % at 10 µM; Protein AF-9 (Homo sapiens), P42568;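 active = every replicate reaching a set inhibition limit, whatever the replicate mean, cut at about 25% in these data; inconclusive = mean inhibition reaches that limit but some replicates miss it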;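 also: 0% = plate neutral control median and 100% = total signal loss; the record names both 10 and 1 µM as test concentration; the first replicate is given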
# Target sequence (P42568 whole entry, looked up): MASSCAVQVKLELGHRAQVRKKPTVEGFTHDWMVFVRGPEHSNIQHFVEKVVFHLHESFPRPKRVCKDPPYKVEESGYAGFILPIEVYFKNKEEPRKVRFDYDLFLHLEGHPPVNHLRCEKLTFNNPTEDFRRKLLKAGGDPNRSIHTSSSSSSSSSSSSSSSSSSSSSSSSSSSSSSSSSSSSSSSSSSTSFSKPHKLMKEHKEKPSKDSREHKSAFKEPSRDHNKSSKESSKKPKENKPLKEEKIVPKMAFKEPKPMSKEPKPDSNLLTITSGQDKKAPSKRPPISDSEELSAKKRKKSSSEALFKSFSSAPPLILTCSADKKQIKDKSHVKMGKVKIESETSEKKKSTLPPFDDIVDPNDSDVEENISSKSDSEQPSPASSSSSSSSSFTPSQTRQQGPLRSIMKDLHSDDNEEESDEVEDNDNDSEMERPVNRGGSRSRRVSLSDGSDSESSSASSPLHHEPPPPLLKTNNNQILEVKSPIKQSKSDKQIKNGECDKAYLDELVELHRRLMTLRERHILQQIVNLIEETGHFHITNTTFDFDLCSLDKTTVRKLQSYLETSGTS
# rRNA inh HTS = reduced GFP signal of wild-type E. coli, primary screen, bacterial rRNA inhibitor project, GFP/RFP fluorescence, OD600, single point | E. coli WT GFP vs humanized-ribosome RFP mutants, 24 h; stronger effect = lower value; DMSO median 0, no signal -100 | GFP signal change (wild-type ribosome), % (test concentration not listed) | actives 1.6% (n = 350,000) | AID 720706, 2013;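 active = significant combined selectivity score with lowered wild-type GFP, culture density cut under 30%, mutant RFP and density less affected; inactive = any of these conditions unmet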; also: one replicate is shown; some compounds called inactive have numbers as strong as hits
# Beta cell apopt = inhibitors of cytokine-induced beta cell apoptosis, primary screen, luminescence. INS-1E cytokine-induced death, ATP luminescence, 48 h; percent of positive-control rescue, neutral wells zero. protection from apoptosis, % (no concentration beside the values). actives 0.8% (n = 300,000);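 active = all replicates at 75% or more, or half of them and the mean; inconclusive = half reach 75% but not the mean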;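 also: 0% = cytokine-treated negative control wells and 100% = positive control rescue; higher means more ATP so stronger rescue from cytokine killing; wells of about 40 µL received 100 nL stock; the first replicate is given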
# T cruzi inh = inhibitors of intracellular T. cruzi growth, primary screen, luminescence, NIH3T3 host cells; T. cruzi beta-gal in NIH3T3, 90 h; inhibition, % (no concentration beside the values); actives 1.4% (n = 300,000);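 active = mean inhibition across valid replicates above about 55%, limit read from the data; inconclusive = mean below that limit but half or more replicates reach it; inactive = mean below it, under half of replicates reach it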;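 also: signal also drops with host cell toxicity which is not excluded here; 0% = plate median of DMSO wells and 100% = zero luminescence signal; higher percent means less beta-gal luminescence so fewer parasites; stock transfer was 50 nL into about 50 µL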
# RanGTP-Imp inh = inhibitors of RanGTP-importin-beta interaction, primary screen, biochemical, FRET, CFP-Ran, YFP-importin-beta, homogeneous | cell-free CFP-Ran/YFP-importin-beta FRET ratio | inhibition, % (concentration not given with the values) | actives 1.1% (n = 300,000) | Ran GTPase (GTP-bound) - importin-beta complex;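 active = most replicates above 15%; inconclusive = exactly half above 15%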;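 also: 0% = DMSO wells and 100% = Ran loaded with GDP instead of GTP; wells of about 40 µL received 100 nL stock; the first replicate is given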
# Bfl-1 A1 inh = caspase 3/7 activation in MEF A1-2A-BIM cells, primary screen, A1 inhibitor project, cell-based, luminescence, HTS. AID 2462, 2010. actives 0.066% (n = 330,000). caspase activation, % (test concentration not listed). Caspase-Glo 3/7 luminescence, 3 h; percent of clofoctol response, vehicle zero;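 active = over half of replicate activation scores above 10%, or exactly half above 10 with the replicate mean above 10; inconclusive = replicate mean below 10 yet half the replicates above 10; inactive = over half of replicates below 10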;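 also: wells of about 30 µL received 50 nL stock; many hits fall short of the cut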
# rRNA inh HTS OD600 = also measured in rRNA inh HTS; calls as there; OD600 change, %; measured here: OD600 growth;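 optical density of the mix in the first replicate; 0 = DMSO median and -100 = no signal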
# rRNA inh HTS RFP = second read-out of rRNA inh HTS, no call of its own (marks repeat the call); RFP signal change, %; measured here: RFP humanized mutant strains;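 first replicate; 0 = DMSO median and -100 = no signal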
# * marks the source's active call; other numbers are inactive results; ? = inconclusive; nt = no result given; & = joins results of further samples. This is a subset. The share of hits here may be higher or lower than overall.
SMILES,Calb FLC,Vif TR-FRET,MLL AF4-AF9 inh,rRNA inh HTS,rRNA inh HTS OD600,rRNA inh HTS RFP,Beta cell apopt,T cruzi inh,RanGTP-Imp inh,Bfl-1 A1 inh
O=C(OCC(=O)N1CCN(c2ccccc2)CC1)c1cnc(Cl)c(Cl)c1,1,-13%,-3.6,-11,-20,0.2,-4,3,6.4,-1.2
Oc1ccccc1C1NN=C(c2ccccc2)S1 (stereo not given),-3,-3%,-1.9,23,34,4.8,nt,-18,1.8,-7.6
CSc1ccccc1C(=O)Nc1c(C)cccc1C,1,-9%,-4.5,16,7,3.5,-5,-2,-3.3,0.2
COc1cccc(C(=O)NC(c2ccccc2)C2CCCC2)c1 (stereo not given),27,?,-0.5,16,8,1.5,1,18,-2.8,0.5
COc1cccc(-n2c(SCC(N)=O)nnc2-c2ccncc2)c1,-2,4%,nt,nt,nt,nt,2,-31,5.6,0.1
C=CCN1C(=O)C2C3CC(=O)C(c4ccccc43)C2C1=O (stereo not given),1,nt,-0.4,-3,-3,-1.1,nt,0,-6.0,-0.5
COc1ccc(Nc2nc(C(=O)N3CCc4cc(OC)c(OC)cc4C3)cs2)cc1,14,13%,1.1,-39*,-15*,11*,2,-15,5.0,-0.1
Clc1ccc(Cl)c(-c2nn3c(Cn4cnc5ccccc54)nnc3s2)c1,-14,nt,nt,nt,nt,nt,6,15,0.7,-0.1
O=C(O)c1ccc(CSCc2ccccc2Cl)o1,-11,-1%,0.3,-4,-1,1.0,-9,-10,1.8,0.4
CCCCN(C)S(=O)(=O)c1ccc(C(=O)Nc2nnc(C3=COCCO3)o2)cc1,28,4%,0.6,-43,-66,-2.6,0,-19,1.5,-0.2
Nc1nonc1-n1nncc1-c1ccccc1,7,4%,nt,nt,nt,nt,nt,-24,0.6,0.8
Cc1cc(C)c(S(=O)(=O)N2CCCC2=O)c(C)c1N(C)S(C)(=O)=O,-3,nt,1.0,26,12,1.9,nt,-4,4.0,0.7
CCSc1nnc(CSc2ncccn2)n1C,-7,-1%,-1.4,15,13,0.7,6,0,2.8,1.7
CCc1cc2c(NCCN3CCCCC3)ncnc2s1,?,1%,nt,nt,nt,nt,-12,-4,-2.7,-0.1
Cc1ccc(-c2nnc3c4ccccc4c(C)nn23)cc1NC(=O)CN1CCOCC1,-3,-9%,nt,nt,nt,nt,nt,0,-1.1,nt
CC(C)c1ccc(N(C(=O)c2csnn2)C(C(=O)NC2CCCC2)c2cccnc2)cc1 (stereo not given),-2,-6%,1.9,2,1,2.3,6,-1,2.0,-0.3
Cc1[nH]n(C)c(=O)c1N=Nc1ccc(S(C)(=O)=O)cc1,?,-5%,0.6,13,8,-3.1,-1,4,-4.5,-0.8
COc1ccc(CNc2nc(NCc3ccc(OC)cc3)n(S(C)(=O)=O)n2)cc1,-10,2%&-6%,nt,nt,nt,nt,-3,-3,2.5,-0.1
COCC(=O)Nc1c(C(=O)Nc2ccccc2OC)oc2ccccc12,2,-2%,nt,nt,nt,nt,2,-7,-0.7,0.5
CN(CCCCN1CCOCC1)Cc1nc(-c2ccc3c(c2)OCO3)no1,-12,-7%,1.6,-2,3,-0.5,-5,13,?,0.4
Cc1ccc(OCCNC(=O)C2CC(=O)N(c3ccc(C)cc3)C2)cc1 (stereo not given),3,-6%,nt,nt,nt,nt,-2,-19,-2.0,-0.4
COc1ccccc1CNC(=O)c1cccc(S(=O)(=O)N(C)c2ccccc2)c1,nt,-13%,-1.1,nt,nt,nt,6,nt,nt,-0.7
CC1CCCCC1NC(=O)COC(=O)c1ccccn1 (stereo not given),5,-3%,nt,nt,nt,nt,-7,-3,-2.3,0.6
COc1ccc(C(C(=O)NC(C)(C)C)N(C(=O)CNC(=O)c2cccs2)c2cccnc2)cc1OC (stereo not given),-1,8%,-0.1,0,9,-1.8,-8,-10,-0.6,1.0
O=C(Cn1cnc2c(nnn2Cc2ccccc2F)c1=O)N1CCN(c2ccccc2)CC1,-7,8%,-35,-8,2,5.2,2,8,6.2,-0.6
COC(=O)Cc1c(O)ccn(Cc2ccc(Cl)c(Cl)c2)c1=O,7,-4%,-1.7,-21*,-5.4*,8.4*,-2,-6,3.1,-0.1
CCCCCC(=O)Nc1ccc2oc(-c3ccncc3)nc2c1,3,-8%,nt,nt,nt,nt,1,15,1.8,0.4
CC(=O)NCCc1nc2ccccc2[nH]1,3,7%,-5.8,9,10,2.5,-1,-1,5.4,0.3
CCCc1nc2n[nH]c(N)c2c2c1CCC2,-8,1%,nt,nt,nt,nt,-5,31,1.5,-0.3
Cc1ccc(C(=O)NC(C)C(c2cccs2)N2CCCC2)s1 (stereo not given),-15,nt,-1.2,9,14,2.4,-2,-8,-2.6,0.1
CCCN1C(=O)c2ccccc2NC1c1ccc(Br)cc1 (stereo not given),-5,6%,0.4,-13,-31,-12,1,0,0.4,0.7
CC1(C)C(=O)Nc2ccccc2N1C(=O)CSc1ncccn1,-11,nt,1.8,8,9,2.9,nt,-9,6.7,1.3
Cc1c(Cl)cccc1S(=O)(=O)N1CCC(C(=O)NNC(=O)C2CC2)CC1,12,-7%,-0.8,-6,-8,0.3,-5,-23,0.6,-0.8
OC(CCN1CCOCC1)(c1ccc(Cl)cc1)C1CCCCC1 (stereo not given),-22,2%,nt,nt,nt,nt,7,1,-1.3,0.4
CCS(=O)(=O)N1CCC(C(=O)NCCc2ccc(OC)c(OC)c2)CC1,-2,-3%,-12,6,5,2.3,7,-8,-4.7,-0.3
CCCn1nc(C(=O)NNC(=O)c2cccc(S(=O)(=O)NC(C)C)c2)c2ccccc2c1=O,1,nt,0.3,1,2,-0.3,-2,-3,-1.3,-1.4
O=C1CCCC2=C1C(c1cccs1)n1nc(SCc3ccccc3F)nc1N2 (stereo not given),-6,-9%&20%,nt,nt,nt,nt,2,19,-1.5,-0.9
COc1ccc(CNCCC(c2ccc(OC(C)C)cc2)C(C)C)cc1OC (stereo not given),-22,-5%,nt,nt,nt,nt,86*,73*,2.3,-0.4
N#Cc1ccc(N2Cc3ccccc3C2=NC(=O)c2cccnc2Cl)cc1,2,12%,3.7,-3,-4,-12,5,3,2.0,-2.7
C=CCSc1nc2c(c(=O)n(C)c(=O)n2C)n1CC,-2,10%,5.1,nt,nt,nt,nt,-4,2.9,-0.3
Fc1ccc(Br)cc1SCCc1ccncc1,-1,2%,-4.1,-25*,-12*,-2.2*,-8,24,0.7,0.6
C=CCc1cccc2cc(C(=O)Nc3ccc(NC(C)=O)cc3)c(=O)oc12,3,30%,-0.2,6,15,0.3,1,-4,0.9,-1.3
O=C(NC(=S)Nn1cnnc1)c1ccccc1Cl,3,nt,-2.6,12,15,2.1,-7,-8,0.4,-0.8
CCn1nnnc1SCC(=O)N(C1CCCCC1)C1CCCCC1,0,2%,nt,nt,nt,nt,6,-6,-0.4,-0.1
Cc1nc2ccc(NC(=O)c3ccco3)cc2s1,-11,nt,0.1,7,14,2.7,-3,-39,1.2,-0.5
N#Cc1ccsc1NC(=O)COC(=O)c1ccc(Br)o1,nt,nt,0.4,1,-1,-1.9,-3,nt,nt,-2.7
COC(CNC(=O)C(=O)Nc1ccc2c(c1)N(S(=O)(=O)c1cccs1)CCC2)OC,6,-1%,-0.2,-13,-12,4.4,-5,24,-1.9,-0.4
O=C(NCc1cccnc1)c1ccc(COc2ccccc2Cl)cc1,34,-1%,-0.2,-32,-44,-8.1,103*,0,0.6,-0.6
COC(C[C@@H](O)[C@@H](C)[C@H](O)COCc1ccccc1)OC,-10,nt,-0.5,9,19,11,nt,-3,3.8,nt
Cn1c(=N)n(CC(O)c2cccc3ccccc23)c2ccccc21 (stereo not given),1,-6%,nt,nt,nt,nt,6,14,-1.1,0.2
CC(=O)OCc1cc2cc(C)ccc2[nH]c1=O,-13,4%,nt,nt,nt,nt,-7,-19,-1.4,0.5
CCC(C)(O)c1[nH]c2ccc(C#N)cc2c1C (stereo not given),-1,nt,6.1,-2,-5,-0.6,1,-10,1.7,0.1
COC(=O)[C@H]1[C@@H](C)N(Cc2ccccc2)C(=O)N[C@H]1c1ccccc1,29,nt,0.0,2,6,2.6,1,-18,2.2,0.2
O=C(CN1CCOCC1)N1CCN(S(=O)(=O)c2ccccc2)C1c1ccccc1 (stereo not given),0,3%,nt,nt,nt,nt,-4,-2,1.5,0.0
Cc1cc(C(=O)O[C@H]2[C@H](Cc3ccccc3)NS(=O)(=O)[C@H]3C[C@@H]4C=C[C@]23O4)ccc1[N+](=O)[O-],nt,nt,7.7,5,-12,0.8,-6,nt,nt,0.0
Cc1onc(-c2ccccc2Cl)c1C(=O)NNC(=O)C1CCN(Cc2ccccc2)CC1,-2,nt,-1.5,14,2,-1.3,-5,-1,0.5,-0.2
Cc1cc(NC(=O)c2cccc(S(=O)(=O)N3c4ccccc4CC3C)c2)no1 (stereo not given),-4,-3%,-22,-16,-15,5.6,2,19,?,0.5
O=C(Nc1ccc(SC(F)F)cc1)c1cccc2nc3ccccc3nc12,9,?,nt,nt,nt,nt,40,24,-0.1,-1.1

# Source: PubChem
